RN4220 kill: kills Staphylococcus aureus RN4220; inhibition, % (no concentration beside the values); actives 0.33% (n = 330,000); S. aureus RN4220 growth, OD600, 16 h; AID 1259311;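 active = z-score of -3 or lower and OD600 up to 0.18 on both plates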;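 note: plate controls were untreated cells for no effect and reference antibiotic for full effect; stock transfer was 100 nL into about 80 µL; one replicate is shown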
Mtb hypoxia rep: inhibitors of hypoxia-regulated fluorescent reporter in Mycobacterium tuberculosis. actives 0.1% (n = 300,000). fluorescence inhibition, % (concentration not given with the values). M. tuberculosis hypoxia-regulated fluorescent reporter, fluorescence;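 active = 35 to 45% if threefold the growth effect, above 45% if 1.5-fold the growth effect; inactive = the rest, general growth blockers included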;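 note: wells of about 50 µL received 100 nL stock; 0% = vehicle wells and 100% = reference inhibitor wells; whole bacteria with a GFP reporter of the hypoxia response; strong numbers were not always called active; many hits fall short of the cut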
BJeLR lethal: kills HRASV12-expressing BJeLR cells; BJeLR (HRASV12) viability, CellTiter-Glo ATP luminescence, 48 h; reference of the scale not given here; inhibition, % (test concentration not listed); actives 0.17% (n = 300,000);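 active = replicate mean above 50%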;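 note: 50 nL library stock added to about 25 µL; numbers are from one replicate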
ugtP null kill: growth inhibition of S. aureus ugtP deletion strain | S. aureus RN4220 ugtP deletion, OD600 growth, 16 h; some inactives read as strong as hits | growth inhibition, % (no concentration beside the values) | actives 0.54% (n = 330,000) | AID 1259309;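 active = z-score under -3 and OD600 up to 0.15 on both plates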;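 note: plate controls were untreated wells for no effect and antibiotic for full effect; wells of about 80 µL received 100 nL stock; the first replicate is given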
Autofluor counter: counter-screen for toxin protease inhibitors: compound fluorescence; fluorescence intensity (no concentration beside the values); compound autofluorescence counterscreen, microsphere flow cytometry; hits give high values; actives 3.1% (n = 360,000); AID 624483;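 active = at least 3 SD above the mean of all compounds, about 16000 in these data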;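 note: 100 nL of 1 mM stock went into each well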
PrP UTR inh: inhibition of PrP 5' UTR reporter expression; cell-based PrP 5' UTR mRNA reporter, plate reader; inhibition, % (test concentration not listed); actives 0.35% (n = 340,000);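 active = every replicate at 50% or more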;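 note: 0 = median of the neutral control wells; tested in H4 reporter cells; numbers are from one replicate; inactives centre near -14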
Mtb hypoxia rep growth: recorded beside Mtb hypoxia rep, whose call it bears; growth inhibition, %; measured here: M. tuberculosis growth (absorbance);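 0% = vehicle and 100% = reference antibiotic; read after six days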
Numbers without * were called inactive. Hits appear at their usual frequency. About 4.1% of those tested had a hit in this group.

CC1CC(C)CN(C(=O)COC(=O)c2ccc3ccccc3n2)C1 (stereo unspecified) was read as RN4220 kill 2.9, Mtb hypoxia rep 4, ugtP null kill -3, Autofluor counter 4022, PrP UTR inh -5 and Mtb hypoxia rep growth 0.
`COc1ccc(CCNC(=O)C2(C)CCC(=O)N2Cc2ccc(C)cc2)cc1OC` (stereo unspecified) gave RN4220 kill 1.1, Mtb hypoxia rep -2, BJeLR lethal -17, ugtP null kill 19, Autofluor counter 3603, PrP UTR inh -13 and Mtb hypoxia rep growth 8.
`O=C(O)C=C1CCCc2ccccc2C1O` (stereo unspecified) gave RN4220 kill 7.4, Mtb hypoxia rep 6, ugtP null kill 5 and Mtb hypoxia rep growth 0.
`CN1CCN(c2ccc(CNC(=O)c3cc4ccccc4o3)cc2)CC1` gave RN4220 kill -2.6, Mtb hypoxia rep -5, BJeLR lethal 10, ugtP null kill -6, Autofluor counter 2914, PrP UTR inh -19 and Mtb hypoxia rep growth 8.
`CSc1ncccc1C(=O)Nc1ccncc1` gave RN4220 kill 3.7, Mtb hypoxia rep 13, BJeLR lethal 0, ugtP null kill 0, Autofluor counter 5578, PrP UTR inh -15 and Mtb hypoxia rep growth 4.
COc1cc(C=CC(=O)N2CCCN(C(=O)C=Cc3cc(OC)c(OC)c(OC)c3)CC2)cc(OC)c1OC was read as RN4220 kill 3.5, Mtb hypoxia rep 2, ugtP null kill 2 and Mtb hypoxia rep growth 3.
For O=C(NCCN1CCOCC1)c1cccc(S(=O)(=O)N2CCCCC2)c1 the results were RN4220 kill 1.9, Mtb hypoxia rep 6, BJeLR lethal 6, ugtP null kill 6, Autofluor counter 6528, PrP UTR inh -21 and Mtb hypoxia rep growth 9.
`O=C(CCNS(=O)(=O)c1cccs1)N1CCCCCC1` gave RN4220 kill 1.8, BJeLR lethal 3, ugtP null kill 8, Autofluor counter 3666 and PrP UTR inh -46.
CCN(CC(=O)NCc1ccc(Cl)cc1)C(=O)CSc1ccccc1 was read as RN4220 kill -1.0, Mtb hypoxia rep 3, BJeLR lethal 1, ugtP null kill 8, Autofluor counter 5799, PrP UTR inh -25 and Mtb hypoxia rep growth 2.
Screening O=C(O)CNCC1COc2ccccc2O1 (stereo unspecified) returned RN4220 kill 2.5, Mtb hypoxia rep 7, BJeLR lethal -1, ugtP null kill 2, Autofluor counter 8761, PrP UTR inh -15 and Mtb hypoxia rep growth 10.

The final 5 compounds of the part before lead into the next.
COc1cc(C=CC(=O)N2CCCN(C(=O)C=Cc3cc(OC)c(OC)c(OC)c3)CC2)cc(OC)c1OC was read as RN4220 kill 3.5, Mtb hypoxia rep 2, ugtP null kill 2 and Mtb hypoxia rep growth 3.
For O=C(NCCN1CCOCC1)c1cccc(S(=O)(=O)N2CCCCC2)c1 the results were RN4220 kill 1.9, Mtb hypoxia rep 6, BJeLR lethal 6, ugtP null kill 6, Autofluor counter 6528, PrP UTR inh -21 and Mtb hypoxia rep growth 9.
`O=C(CCNS(=O)(=O)c1cccs1)N1CCCCCC1` gave RN4220 kill 1.8, BJeLR lethal 3, ugtP null kill 8, Autofluor counter 3666 and PrP UTR inh -46.
CCN(CC(=O)NCc1ccc(Cl)cc1)C(=O)CSc1ccccc1 was read as RN4220 kill -1.0, Mtb hypoxia rep 3, BJeLR lethal 1, ugtP null kill 8, Autofluor counter 5799, PrP UTR inh -25 and Mtb hypoxia rep growth 2.
Screening O=C(O)CNCC1COc2ccccc2O1 (stereo unspecified) returned RN4220 kill 2.5, Mtb hypoxia rep 7, BJeLR lethal -1, ugtP null kill 2, Autofluor counter 8761, PrP UTR inh -15 and Mtb hypoxia rep growth 10.
COc1cc2[nH]c(C(=O)NCc3ccccc3)cc2c(OC)c1OC was read as RN4220 kill -3.2, Mtb hypoxia rep 4, BJeLR lethal 13, ugtP null kill -2, Autofluor counter 3974, PrP UTR inh -12 and Mtb hypoxia rep growth -2.
For COc1ccc(NC(=O)COc2ccc(C)cc2)c([N+](=O)[O-])c1 the results were RN4220 kill -0.6, Mtb hypoxia rep 3, BJeLR lethal -2, ugtP null kill 9 and Mtb hypoxia rep growth 3.
For O=C(CSc1nc(=O)[nH]c2c1CCCC2)Nc1cc(C(F)(F)F)cc(C(F)(F)F)c1 the results were RN4220 kill 0.3, Mtb hypoxia rep 2, BJeLR lethal 14, ugtP null kill -15, PrP UTR inh -1 and Mtb hypoxia rep growth -2.
`C=CCn1c(=S)sc2c(=O)[nH]c(C)nc21` gave RN4220 kill 4.0, Mtb hypoxia rep 3, BJeLR lethal -1, ugtP null kill 4 and Mtb hypoxia rep growth 8.
For CC(C)(C)NC(=O)Cn1c(=O)n(CC(=O)NC(C)(C)C)c2ccccc21 the results were RN4220 kill 1.3, Mtb hypoxia rep -7, BJeLR lethal 2, ugtP null kill -3, Autofluor counter 4638, PrP UTR inh -23 and Mtb hypoxia rep growth 2.
`CC(=O)N1CCCc2cc(S(=O)(=O)N3CCCC(C(=O)Nc4cccc(C)c4)C3)ccc21` (stereo unspecified) gave RN4220 kill 2.1, Mtb hypoxia rep -1, BJeLR lethal 11, ugtP null kill 3, Autofluor counter 5724, PrP UTR inh -7 and Mtb hypoxia rep growth 0.
COc1ccccc1NC(=O)c1ccc(C(=O)Nc2ccccc2OC)nc1 was read as RN4220 kill 0.2, Mtb hypoxia rep -3, BJeLR lethal 5, ugtP null kill 3, Autofluor counter 3772, PrP UTR inh -13 and Mtb hypoxia rep growth 2.
For O=C1OC(c2ccccc2)=C/C1=C/N1CCOCC1 the results were RN4220 kill 2.2, Mtb hypoxia rep 20, BJeLR lethal 3, ugtP null kill 5, Autofluor counter 6741, PrP UTR inh -39 and Mtb hypoxia rep growth 7.
Cc1cccnc1NC(=O)C(c1ccccc1)c1ccccc1 was read as RN4220 kill 0.0, Mtb hypoxia rep 1, BJeLR lethal 3, ugtP null kill 5, Autofluor counter 5275, PrP UTR inh -10 and Mtb hypoxia rep growth -9.
`CC(c1ccccc1)C(Cc1nc2ccccc2[nH]1)c1nc2ccccc2[nH]1` (stereo unspecified) gave RN4220 kill -14, Mtb hypoxia rep 1, BJeLR lethal 8, ugtP null kill -6 and Mtb hypoxia rep growth 2.
For CC(C)Nc1c([N+](=O)[O-])c(=O)oc2ccccc12 the results were RN4220 kill 6.2, Mtb hypoxia rep -7, BJeLR lethal -5, ugtP null kill 6, Autofluor counter 4462, PrP UTR inh 6 and Mtb hypoxia rep growth -1.
C/C(=N\NC(=O)C1CC1c1ccccc1)c1cccc([N+](=O)[O-])c1 (stereo unspecified) was read as BJeLR lethal 0, Autofluor counter 2740 and PrP UTR inh -9.
Screening O=C1C2CCCN2C(=S)N1C1CCCCC1 (stereo unspecified) returned RN4220 kill 2.8, Mtb hypoxia rep 3, BJeLR lethal -4, ugtP null kill 7, Autofluor counter 4734, PrP UTR inh -5 and Mtb hypoxia rep growth -3.
CCOc1ccc(CCNC(=O)CCCn2c(=O)c3cccn3c3cccnc32)cc1OCC was read as RN4220 kill -0.2, Mtb hypoxia rep -11, BJeLR lethal 7, ugtP null kill -3, Autofluor counter 6867, PrP UTR inh -17 and Mtb hypoxia rep growth 0.
Screening CCOC(=O)c1ccc(NC(=S)N2CCCC2)cc1 returned RN4220 kill 2.7, Mtb hypoxia rep 13, BJeLR lethal -6, ugtP null kill 5, Autofluor counter 3232, PrP UTR inh -25 and Mtb hypoxia rep growth 15.
Cc1ccc(CCN2CC(C(=O)NCc3cccnc3)CC2=O)cc1 (stereo unspecified) was read as RN4220 kill 2.0, Mtb hypoxia rep 6, BJeLR lethal 5, ugtP null kill 8, Autofluor counter 4452, PrP UTR inh -33 and Mtb hypoxia rep growth 2.
`COc1ccc(C(=O)C2CCCN(Cc3ccon3)C2)c(OC)c1` (stereo unspecified) gave RN4220 kill 3.0, Mtb hypoxia rep -6, BJeLR lethal -6, ugtP null kill 2, Autofluor counter 2682, PrP UTR inh -21 and Mtb hypoxia rep growth 6.
`O=C(CN1C(=O)c2ccccc2C1=O)Nc1nccs1` gave RN4220 kill 4.1, Mtb hypoxia rep 6, BJeLR lethal 4, ugtP null kill 6, Autofluor counter 5741, PrP UTR inh -23 and Mtb hypoxia rep growth 0.
Screening CCCCn1nc(NC(=O)COC)c2cc3ccc(C)cc3nc21 returned RN4220 kill 4.9, Mtb hypoxia rep 15, BJeLR lethal 1, ugtP null kill 14, Autofluor counter 2824, PrP UTR inh 2 and Mtb hypoxia rep growth 1.
For NC(=O)C1CCN(C(=O)CSc2ccsc2[N+](=O)[O-])CC1 the results were RN4220 kill 7.1, Mtb hypoxia rep -2, ugtP null kill 3, Autofluor counter 2794, PrP UTR inh -43 and Mtb hypoxia rep growth 5.

Looked up one by one from the list above:
Cc1ccc(CCN2CC(C(=O)NCc3cccnc3)CC2=O)cc1 (stereo unspecified) was read as RN4220 kill 2.0, Mtb hypoxia rep 6, BJeLR lethal 5, ugtP null kill 8, Autofluor counter 4452, PrP UTR inh -33 and Mtb hypoxia rep growth 2.
Screening O=C1C2CCCN2C(=S)N1C1CCCCC1 (stereo unspecified) returned RN4220 kill 2.8, Mtb hypoxia rep 3, BJeLR lethal -4, ugtP null kill 7, Autofluor counter 4734, PrP UTR inh -5 and Mtb hypoxia rep growth -3.
Screening CCOC(=O)c1ccc(NC(=S)N2CCCC2)cc1 returned RN4220 kill 2.7, Mtb hypoxia rep 13, BJeLR lethal -6, ugtP null kill 5, Autofluor counter 3232, PrP UTR inh -25 and Mtb hypoxia rep growth 15.

The results go on.
CC(C(=O)N1c2ccc(F)cc2CCC1C)N1C(=O)c2ccccc2C1=O (stereo unspecified) was read as RN4220 kill 4.0, Mtb hypoxia rep 0, BJeLR lethal 2, ugtP null kill -3, Autofluor counter 4685, PrP UTR inh -1 and Mtb hypoxia rep growth 4.
CC1CN(C(=O)COC(=O)c2ccc(Cl)c(N)c2)CC(C)O1 (stereo unspecified) was read as BJeLR lethal -11, Autofluor counter 4995 and PrP UTR inh -31.
For COc1ccc(N2CCN(C(=O)CN=C3NS(=O)(=O)C(c4ccc(C)cc4)=C3C)CC2)cc1 the results were RN4220 kill 4.5, Mtb hypoxia rep 0, ugtP null kill 7, Autofluor counter 17288*, PrP UTR inh -9 and Mtb hypoxia rep growth 6.
`O=C(NN=Cc1ccc(O)cc1)c1cccc(NN=Cc2ccc(O)cc2)c1` gave RN4220 kill -1.0, Mtb hypoxia rep 2, ugtP null kill 4 and Mtb hypoxia rep growth 7.
COc1ccc(NC(=O)Cc2c(Cl)cccc2Cl)cn1 was read as RN4220 kill 8.6, Mtb hypoxia rep 5, BJeLR lethal 9, ugtP null kill 9, Autofluor counter 4486, PrP UTR inh -16 and Mtb hypoxia rep growth 13.
COc1ccc2oc(C(=O)OCC(=O)Nc3ccc(NC(C)=O)cc3)c(C)c2c1 was read as RN4220 kill 0.6, Mtb hypoxia rep 8, BJeLR lethal -4, ugtP null kill 4, Autofluor counter 3811, PrP UTR inh -9 and Mtb hypoxia rep growth 3.
`COc1ccc(C(=O)Nc2ccc(S(=O)(=O)Nc3onc(C)c3C)cc2)cc1` gave RN4220 kill 0.3, BJeLR lethal 5, ugtP null kill -2, Autofluor counter 2695 and PrP UTR inh 5.
Screening Cc1ccc(C)n1Cc1ccccc1Cl returned RN4220 kill 2.1, Mtb hypoxia rep -11, BJeLR lethal 1, ugtP null kill 4, Autofluor counter 3946, PrP UTR inh -45 and Mtb hypoxia rep growth -11.
For O=C(O)c1ccccc1C(=O)c1cccc2c(Br)cccc12 the results were RN4220 kill 8.5, Mtb hypoxia rep 14, ugtP null kill -12, Autofluor counter 3729, PrP UTR inh -33 and Mtb hypoxia rep growth 19.
For COc1ccc(-c2cc3c(=O)n(CC(=O)NCc4cccnc4)ncn3n2)cc1 the results were RN4220 kill -4.4, Mtb hypoxia rep 8, BJeLR lethal -5, ugtP null kill -6, Autofluor counter 6380, PrP UTR inh -10 and Mtb hypoxia rep growth 13.
O=C(CNC(=O)C(c1ccccc1)c1ccccc1)NN=Cc1ccc(O)c([N+](=O)[O-])c1 was read as RN4220 kill -5.5, Mtb hypoxia rep 16, ugtP null kill 19 and Mtb hypoxia rep growth 27.
For NC(=O)c1ccccc1NC(=O)Cc1cccs1 the results were RN4220 kill 4.3, Mtb hypoxia rep -7, BJeLR lethal -1, ugtP null kill 12, Autofluor counter 4066, PrP UTR inh -24 and Mtb hypoxia rep growth 2.

High-throughput results: PubChem BioAssay, several laboratories
